# Assay outcomes (PubChem)
# Vaccinia mCherry – inhibitors of vaccinia virus infection (mCherry reporter signal); Vaccinia virus mCherry reporter infection, fluorescence; about a quarter of the inactives have no number; AID 720579; Potency, µM (series often up to 36.5 µM), without a hit: at the top dose activity change, negative = inhibition, usual class: inhibitors; actives 0.63% (n = 310,000); active = well fitted inhibition curve with a large enough effect; inconclusive = small, poorly fitted or top-dose-only effect; inactive = no such curve, though single readings can be large or run the other way; tested in A549 cells; also: nearly all actives have a fitted effect of over 35% in size; inactives centre near -10
# Vaccinia Venus – vaccinia inhibition (Venus reporter). Potency, µM (titrated, usually from 36.5 µM), for inactives: at the top dose activity change, negative = inhibition, most hits filed as inhibitors. Vaccinia virus Venus reporter expression, fluorescence. actives 0.46% (n = 330,000). AID 720580; active means well fitted inhibition curve with a large enough effect; inconclusive means small, poorly fitted or top-dose-only effect; inactive means no such curve, though single readings can be large or run the other way; tested in A549 cells; also: nearly all actives have a fitted effect of over 30% in size; inactives centre near -10
# * hit, by the source's call; i = inactive; ? = inconclusive; nt = no result given; & = joins results of further samples; [ ] = dose if it differs, or a comment. % is scaled to controls: 0 for no effect and ±100 for the full control effect; potency is read from the fitted curve at half-maximal effect.
canonical_smiles | Vaccinia mCherry | Vaccinia Venus
COc1ccc(CCNC(=O)c2cccc3c2C(=O)N(C2CCCCC2)C3)cc1OC | i | -21.1%
Cc1ccc2nc(Cc3ccc(N)cc3)oc2c1 | -21.2% | -15.0%
CCC(C)NC(=O)CCSc1nc(-c2ccc(OC)cc2)cc(C(F)(F)F)n1 (centres undefined) | -11.1% | -2.2%
CCCCn1cnc2c(SCc3ccc(Cl)cc3)nc(N)nc21 | i | -2.5%
COCc1cc(O)c(O)c(O)c1-c1c(COC)cc(O)c(O)c1O | 42.5%[activator] | 15.3%
O=C(Cc1cccs1)Nc1cccc(C(=O)Nc2ccc(C(=O)O)cc2)c1 | 2.2% | -11.3%
Cc1ccc(S(=O)(=O)N(C)CC(=O)N2CCCC2)cc1 | -13.2% | 2.2%
Cc1cc(-n2c(C)cc(C(=O)CSc3ccccn3)c2C)no1 | -13.9% | 1.7%
CCn1c(SCC(=O)Nc2cc(S(=O)(=O)N3CCOCC3)ccc2OC)nnc1-c1ccncc1 | i | -6.1%
CC1(C)NC(=O)N(CCC(=O)Nc2ccc(C(C)(C)C)cc2)C1=O | -12.4% | -4.7%
CN1CCN(C(=O)CN(C2CCCCC2)S(=O)(=O)c2ccc(Br)cc2)CC1 | i | -9.1%
CN(C)c1ccc(C(=O)c2ccccc2C(=O)O)cc1[N+](=O)[O-] | i | -10.2%
CCOc1ccc(C(=O)NNC2CC(=O)N(Cc3ccc(Cl)cc3)C2=O)cc1OC (centres undefined) | -16.1% | -3.3%
O=C(Nc1cc([N+](=O)[O-])ccc1O)c1cccc([N+](=O)[O-])c1 | -16.2% | -12.0%
CCN(CC)S(=O)(=O)c1cccc(-c2n[nH]c(=S)n2CC(C)C)c1 | -20.5% | -3.1%
Cc1cc(C)c(Cn2c3ccccc3c3cnn(CC(=O)N4CCCCC4)c(=O)c32)c(C)c1 | -19.5% | -10.0%
COc1cc(C(=O)NCC(c2cccs2)N(C)C)cc(Cl)c1OC(C)C (centres undefined) | i | -23.8%
CCC(C)N(C(=O)Cn1c(Cl)nc2c1c(=O)n(C)c(=O)n2C)C1CCS(=O)(=O)C1 (centres undefined) | -13.4% | -12.3%
CC1CCCN(S(=O)(=O)c2ccc(NC(=O)C3CC(=O)N(C(C)(C)C)C3)cc2)C1 (centres undefined) | -1.9% | -18.5%
CC(=O)N1c2ccc(S(=O)(=O)NCC3CCC(C(=O)NCCC(C)C)CC3)cc2CC1C (centres undefined) | -21.4% | -19.4%
O=C(CSc1nnc2ccccn12)Nc1ncc(Cl)cc1Cl | -10.6% | -8.8%
C=CCN(c1ccc(Br)cc1C(=O)OC)S(C)(=O)=O | -1.0% | -11.7%&-8.6%
Cn1ccc(C(=O)N/N=C/c2c[nH]c3ccccc23)n1 | -18.6% | -14.7%
Cc1cc(=O)[nH]c(SCC(=O)c2ccc3c(c2)NC(=O)CO3)n1 | i | 1.0%
COC(=O)Cc1c(O)ccn(Cc2ccc(OC)c(OC)c2)c1=O | i | -14.0%
CCOCCCn1c(=NC(C)=O)c(C#N)cc2c(=O)n3ccccc3nc21 | -3.6%[7.34 µM] | -6.0%[7.34 µM]
O=C(COC(=O)c1ccco1)c1ccc(Cl)cc1 | i | -16.1%
O=C(c1ccccc1)C(O)(Cc1ccccc1)c1ccccc1 (centres undefined) | -6.0% | -11.5%
COc1ccc(C2=NOC(C(=O)NCc3ccc(F)cc3)C2)cc1 (centres undefined) | ? | ?
COc1ccc(NC(=O)Nc2ccc(Br)c(C)c2)cc1 | -8.5% | -4.5%
COc1ccc(NC(=O)COC(=O)c2c(C)noc2C)cc1Cl | i | -10.0%
COc1cc(OC)cc(C(=O)Nc2ccc(CN3CCCCC3)cc2)c1 | -5.2% | -12.5%
CCOCCCNC(=S)N1CCCN(c2nc3cc(C)ccc3cc2C#N)CC1 | i | 2.2%
COc1ccc(NS(=O)(=O)c2cc(C(=O)OC(C)C(=O)N3CCOCC3)ccc2Cl)cc1 (centres undefined) | -9.0% | -4.8%
O=C(Nc1ccc(F)c(F)c1)C1CCCN1S(=O)(=O)c1cccc2nsnc12 (centres undefined) | -10.2% | -2.5%
COc1ccccc1NC(=O)C1=C(C)Nc2nc(SCc3ccccc3)nn2C1c1cccs1 (centres undefined) | -19.2% | -13.9%
CCN1C(=O)[C@H]2[C@H]3CN=C(SCC(=O)c4ccccc4)N3[C@@](C)(C(=O)OC)[C@H]2C1=O | -20.3% | -6.8%
O=C(O)c1c(Cl)c(Cl)c(Cl)c(Cl)c1C(=O)N1CCCC1 | i | -13.2%
CCC(=O)c1ccccc1OCCCN1CCC(Cc2ccccc2)CC1 | ? | ?
CC(=O)c1cccc(NS(=O)(=O)c2ccc(C(=O)Nc3ccccc3)cc2)c1 | -0.3% | -20.0%

# Brought forward from above: 2 compounds, followed by the next part.
canonical_smiles | Vaccinia mCherry | Vaccinia Venus
CCC(=O)c1ccccc1OCCCN1CCC(Cc2ccccc2)CC1 | ? | ?
CC(=O)c1cccc(NS(=O)(=O)c2ccc(C(=O)Nc3ccccc3)cc2)c1 | -0.3% | -20.0%
COc1ccc(S(=O)(=O)NCc2ccco2)cc1C(=O)N1CCCCC1 | 2.1% | 5.4%
Cc1ccc(S(=O)(=O)N2CCOCC2)cc1NC(=O)COC(=O)Cc1ccccc1 | -1.1% | -10.4%
Cc1cc(C)c2cc(CN(Cc3cccnc3)C(=O)c3ccc(F)cc3)c(Cl)nc2c1 | -8.0% | -13.3%
Cc1nn(CC(=O)Nc2ccc(N(C)C)cc2)c(C)c1[N+](=O)[O-] | -17.1% | -7.1%
N#CC(c1ccc(Cl)cc1)c1cccc(Cl)n1 (centres undefined) | i | -4.7%
COc1cc(C(=O)N2CCC(NC(=O)C(Cc3ccc(C(C)C)cc3)NC(C)=O)CC2)cc(OC)c1OC (centres undefined) | -5.6% | 3.8%
COc1ccc(OC)c(CNC(=O)c2cnc3c(C)cccn3c2=O)c1 | ? | ?
Cc1ccc(S(=O)(=O)CC(=O)c2ccc(C)c([N+](=O)[O-])c2)cc1 | -18.6%[1.46 µM] | -12.4%
COc1ccc(C2Nc3ccccc3C(=O)N2NS(=O)(=O)c2ccccc2)c(OC)c1 (centres undefined) | -8.4% | -5.9%
COc1c(Cl)cc(-c2noc(C)c2C(=O)NCCc2ccc(C)cc2)cc1Cl | 7.9% | -12.7%
Cc1ccccc1NS(=O)(=O)c1cc2c(cc1C)NC(=O)CO2 | -1.3% | -19.1%
COCCNC(=S)N(CCO)Cc1cc2cc3c(cc2[nH]c1=O)OCO3 | -12.4% | -6.5%
S=C(c1ccc(-c2ccccc2)cc1)N1CCOCC1 | -1.4% | -6.0%
C/C(CCc1ccccc1)=N\NC(=O)c1ccc(CN2CCOCC2)cc1 | -5.5% | -4.1%
CCc1ccc2nc(N(Cc3cccnc3)C(=O)c3ccc(C#N)cc3)sc2c1 | -7.5% | -14.8%
Cc1cc(C)cc(N(CC(=O)NCc2ccco2)C(=O)c2snc(C(N)=O)c2N)c1 | -29.3% | ?
Cc1c(NC(=O)C(C)(C)Oc2ccc(Cl)cc2)cccc1-c1nc2ncccc2o1 | -17.1% | -5.1%
O=C(c1ccccc1)N1N=C(c2ccccc2)CC1c1cccs1 (centres undefined) | -6.4% | -8.7%
O=C(CSc1cccc2cccnc12)N1CCCC1 | 11.2µM* | 11.2µM*
CSc1cccc(NC(C)C(=O)NCc2ccccc2)c1 (centres undefined) | -16.8% | -7.3%
Cn1ccnc1SCC(=O)Nc1cc(F)ccc1F | i | -8.1%
Cc1cccc(NC(=O)CN2C(=O)COc3ccc(Cl)cc32)c1 | -3.9% | -5.7%
COCCN(C(=O)CSc1nnc2cc(C)c3ccccc3n12)c1c(N)n(Cc2ccccc2)c(=O)[nH]c1=O | -6.8% | 2.7%
CCSc1ncc(Cl)c(C(=O)Nc2c(C(=O)Nc3ccc(Cl)cc3)oc3ccccc23)n1 | -12.3% | -1.4%
Cc1c(N(C(=O)c2ccccn2)C2(C(=O)NC3CCCC3)CCCCC2)c(=O)n(-c2ccccc2)n1C | i | -5.5%
CC(OC(=O)CC1CC2CCC1C2)C(=O)Nc1cccc(S(=O)(=O)N2CCOCC2)c1 (centres undefined) | i | -4.9%
Cc1ccc(N2CC(C(=O)Nc3ccc(S(=O)(=O)Nc4ncccn4)cc3)CC2=O)cc1C (centres undefined) | 13.0% | 1.9%
CN(C)CCN(Cc1ccc(Cl)cc1)c1ccccn1 | -0.4% | -13.9%
O=C(N/N=C/c1cccnc1)c1ccco1 | -8.0% | -19.1%
CCOC(=O)c1c(C)[nH]c(N=Nc2cccc(OC)c2)c1C | -12.6% | -5.0%
CCOC(=O)C1CCN(S(=O)(=O)c2c(C)n(C)c(=O)n(C)c2=O)CC1 | i | 4.0%
NC(=O)c1nsc(C(=O)N(Cc2ccco2)C(C(=O)NCc2ccccc2)c2ccc(O)cc2)c1N (centres undefined) | i | -1.5%
Cc1ccc(OCC(=O)Nc2c3c(nn2C(C)(C)C)CS(=O)(=O)C3)cc1 | -4.9% | -4.4%
COc1ccc(C(C#N)=Cc2ccc(N(C)CCC#N)cc2)cc1 | -19.3% | -22.2%
COc1ccc(NC(=O)c2ccc3snnc3c2)cc1 | nt | -21.6%
Cc1ccc(Cn2c(S(=O)(=O)O)nc3ccccc32)cc1 | nt | -14.9%
COc1cc(C2c3c(-c4ccccc4O)n[nH]c3C(=O)N2CCO)ccc1OCC(C)C (centres undefined) | -8.8% | -4.0%
CCOc1ccccc1OCC(=O)Nc1cccc(S(=O)(=O)N2CCCCCC2)c1 | -22.6% | -21.9%
O=C(Cc1ccc(Cl)cc1Cl)OCC(=O)N1CCN(C(=O)c2ccco2)CC1 | i | -3.6%
O=C(c1ccco1)N1CCN(C(c2cccs2)c2sc3ncnn3c2O)CC1 (centres undefined) | i | -13.1%
COc1cccc(CNC(=O)COc2cccc3c2OC(C)(C)C3)c1 | -3.1% | -7.6%
CC(=O)Nc1cc(-c2cccc(C)c2)cn2c(-c3ccc(S(C)(=O)=O)cc3)cnc12 | 8.5% | 11.4%
COCCN(C(=O)c1csnn1)C(C(=O)NC(C)(C)C)c1cccc(OC)c1 (centres undefined) | -3.4% | -27.5%
COc1ccc(C(=O)c2no[n+]([O-])c2C(=O)c2ccc(OC)cc2)cc1 | -5.6% | 0.0%
CCCOc1ccc(C(=O)Nc2ccc(S(=O)(=O)N3C[C@@H]4C[C@@H](C3)c3cccc(=O)n3C4)cc2)cc1 | ? | ?
Cc1nc(-c2ccc([N+](=O)[O-])cc2)c(-c2ccccc2)o1 | -9.7% | -9.1%
O/N=C1\CCC\C1=C/c1ccco1 | i | -11.2%
CC1(C(=O)NS(=O)(=O)c2cccc(C#N)c2)CCN1C(=O)Cc1ccc(-c2ccccc2)cc1 (centres undefined) | -12.7% | 1.4%
COc1cccc(C(=O)Nc2nnc(S(=O)(=O)N3CCCc4ccccc43)s2)c1 | i | -19.0%
CCn1cc(Br)c(C(=O)NN)n1 | -15.1% | -6.3%

# Looked up above.
# Reading for `COc1cc(C(=O)NCC(c2cccs2)N(C)C)cc(Cl)c1OC(C)C` (centres undefined) under Vaccinia Venus: -23.8%
# Reading for `Cc1ccc(Cn2c(S(=O)(=O)O)nc3ccccc32)cc1` under Vaccinia Venus: -14.9%
# Reading for `CCC(C)NC(=O)CCSc1nc(-c2ccc(OC)cc2)cc(C(F)(F)F)n1` (centres undefined) under Vaccinia Venus: -2.2%
# Reading for `N#CC(c1ccc(Cl)cc1)c1cccc(Cl)n1` (centres undefined) under Vaccinia Venus: -4.7%

# Returning to the listing, starting four compounds before the break.
canonical_smiles | Vaccinia mCherry | Vaccinia Venus
O/N=C1\CCC\C1=C/c1ccco1 | i | -11.2%
CC1(C(=O)NS(=O)(=O)c2cccc(C#N)c2)CCN1C(=O)Cc1ccc(-c2ccccc2)cc1 (centres undefined) | -12.7% | 1.4%
COc1cccc(C(=O)Nc2nnc(S(=O)(=O)N3CCCc4ccccc43)s2)c1 | i | -19.0%
CCn1cc(Br)c(C(=O)NN)n1 | -15.1% | -6.3%
COc1ccccc1N1CCN(CCNC(=O)Nc2cccc(C)c2C)CC1 | -18.8% | -22.5%
C=C(C)C1CC=C(C)/C(=N/NC(=O)c2ccoc2C)C1 (centres undefined) | -8.2% | -20.6%
O=C(c1cc(COc2ccc(F)cc2F)on1)N1CCN(C(=O)c2ccco2)CC1 | -7.4% | -23.5%
COc1cc(NC(=O)c2ccccc2F)c(OC)cc1NC(=O)CN1CCOCC1 | -12.1% | -11.9%
CC(C)c1ccccc1-n1c(SCc2cc(=O)oc3ccc4ccccc4c23)nnc1-c1cccnc1 | -23.6% | -17.4%
Cc1cc(C)n2nc(SCC(=O)c3cc(C)n(-c4cc(C)on4)c3C)nc2n1 | -6.6% | ?
CSc1ccc(NC(=O)C2(C)CCN2C(=O)Cc2ccc(C(C)(C)C)cc2)cc1 (centres undefined) | 24.2% | -2.3%
O=C1c2[nH]nc(-c3ccccc3O)c2C(c2ccc(F)cc2)N1CCO (centres undefined) | 7.0% | -3.8%
CCOC(=O)C1CCN(S(=O)(=O)c2cc(Br)cc3c2N(C(C)=O)C(C)C3)CC1 (centres undefined) | i | -11.9%
Cn1c(O)c(N=NC(=O)c2ccco2)c2ccccc21 | 6.6% | 0.6%
Nc1nc(N2CCCCC2)c(C=O)c(N2CCCCC2)n1 | -10.0% | -6.8%
Cc1c([N+](=O)[O-])cc(C(=O)NCc2ccc(F)cc2)cc1[N+](=O)[O-] | ? | -9.7%
CCN(CC(=O)NC(C)C)C(=O)Cc1ccc(C)c(C)c1 | 4.8% | -2.0%
